UUG fidelity – yeast start codon fidelity modulation | activity score, % at 18.7 µM | S. cerevisiae UUG-firefly luciferase reporter, luminescence/redox ratio | actives 0.13% (n = 350,000);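 active = replicate mean at a twofold rise or more, about +100% in these data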;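 also: firefly luciferase made from a UUG start codon reports start codon fidelity; reporter light over untreated wells divided by growth signal over untreated wells; some hits fall short of that in this replicate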
* = called active by the depositor.

SMILES	UUG fidelity
CCCNC(=O)C[C@H]1CC[C@H]2[C@H](COc3ccc(NC(=O)c4cscn4)cc3C(=O)N2C)O1	5.5
C[C@H]1CN([C@@H](C)CO)C(=O)c2cc(NC(=O)Nc3ccc(F)cc3)ccc2O[C@H]1CN(C)Cc1ccc(C(=O)O)cc1	1.9
O=C(C[C@@H]1CC[C@H]2[C@@H](COC[C@H](O)CN2Cc2ccc(F)cc2)O1)NCCc1ccccc1	-2.2
C[C@@H]1CN([C@@H](C)CO)C(=O)c2cccc(NC(=O)C3CCCCC3)c2O[C@@H]1CN(C)Cc1ccc2c(c1)OCO2	12.4
COc1ccc(S(=O)(=O)N2CCCCN3[C@H](CO)[C@@H](c4ccc(C#CC5CC5)cc4)[C@@H]3C2)cc1	19.3
COCC(=O)Nc1ccc2c(c1)C(=O)N(C)C[C@@H](OC)[C@H](C)CN(Cc1cncnc1)[C@H](C)CO2	9.8
CO[C@H]1CN(C)C(=O)c2ccc(NS(=O)(=O)c3ccccc3)cc2OC[C@@H](C)NC[C@H]1C	5.3
CC(=O)N1[C@H](CO)[C@H]2c3ccccc3N(S(=O)(=O)c3ccccc3F)C[C@H]21	-4.8
C[C@H](CO)N1C[C@H](C)[C@H](CN(C)S(=O)(=O)c2cccs2)Oc2ccc(NC(=O)Cn3cnnn3)cc2C1=O	-9.3
COc1cccc(C(=O)Nc2ccc3c(c2)C(=O)N(C)C[C@H](OC)[C@@H](C)CN(C)[C@H](C)CO3)c1	7.6
COc1ccc(NC(=O)Nc2ccc3c(c2)CC(=O)N([C@H](C)CO)C[C@H](C)[C@H](CN(C)Cc2ccncc2)O3)cc1	2.4
COCC(=O)N1CCCCN2[C@H](CO)[C@H](c3ccc(C#Cc4ccccc4)cc3)[C@H]2C1	31.8
O=C(Nc1ccccc1)N1CCCCN2[C@H](CO)[C@H](c3ccc(C#Cc4cccnc4)cc3)[C@H]2C1	2.3
Cc1cccc(-c2ccc([C@@H]3[C@H]4CN(CCC(F)(F)F)CCCCN4[C@H]3CO)cc2)c1	1.8
CN1C(=O)c2cc(NC(=O)c3cnccn3)ccc2OC[C@@H]2O[C@H](CC(=O)NC3CCC3)CC[C@@H]21	7.2
CCC(=O)Nc1ccc2c(c1)OC[C@H](C)N(Cc1ccccn1)C[C@@H](C)[C@H](OC)CN(C)C2=O	-17.6
CC(=O)N1CCCCN2[C@H](C1)[C@H](c1ccc(-c3ccc(F)cc3)cc1)[C@@H]2CO	1.5
OC[C@H]1[C@H](c2ccc(-c3ccccc3)cc2)[C@@H]2CN(CCC(F)(F)F)CCCCN12	-3.2
CC=Cc1ccc2n(c1=O)C[C@@H]1[C@@H](CO)[C@H](C(=O)NCCc3cn(C)cn3)[C@H]2N1C(=O)C1CC1 (mixture of isomers)	6.4
Cc1ccc(OC(=O)N(C)C[C@H]2OCc3ccccc3-c3ccccc3C(=O)N([C@H](C)CO)C[C@H]2C)cc1	-14.3
CN1CCN(C(=O)C[C@H]2CC[C@H]3[C@@H](COC[C@@H](O)CN3Cc3cccc(Cl)c3)O2)CC1	-3.8
C[C@@H]1CN([C@H](C)CO)C(=O)c2cc(NS(=O)(=O)c3ccc(Cl)cc3)ccc2O[C@@H]1CN(C)C(=O)NC1CCCCC1	5.6
O=C(Nc1ccccc1F)N1C[C@@H]2[C@H](c3ccccc31)[C@@H](CO)N2C(=O)Nc1ccccc1	-7.2
Cc1cc(C(=O)Nc2cccc3c2O[C@H](CN(C)C(=O)NC(C)C)[C@@H](C)CN([C@H](C)CO)C3=O)n(C)n1	3.3
O=C(CC1CC1)N1CC[C@H]2[C@H](CO)Nc3ccc(-c4ccc(F)cc4)cc3[C@H]21	1.1

Seven entries drawn at random from those above, as already listed:
SMILES	UUG fidelity
OC[C@H]1[C@H](c2ccc(-c3ccccc3)cc2)[C@@H]2CN(CCC(F)(F)F)CCCCN12	-3.2
COCC(=O)Nc1ccc2c(c1)C(=O)N(C)C[C@@H](OC)[C@H](C)CN(Cc1cncnc1)[C@H](C)CO2	9.8
O=C(CC1CC1)N1CC[C@H]2[C@H](CO)Nc3ccc(-c4ccc(F)cc4)cc3[C@H]21	1.1
C[C@@H]1CN([C@H](C)CO)C(=O)c2cc(NS(=O)(=O)c3ccc(Cl)cc3)ccc2O[C@@H]1CN(C)C(=O)NC1CCCCC1	5.6
Cc1ccc(OC(=O)N(C)C[C@H]2OCc3ccccc3-c3ccccc3C(=O)N([C@H](C)CO)C[C@H]2C)cc1	-14.3
CC(=O)N1[C@H](CO)[C@H]2c3ccccc3N(S(=O)(=O)c3ccccc3F)C[C@H]21	-4.8
CN1C(=O)c2cc(NC(=O)c3cnccn3)ccc2OC[C@@H]2O[C@H](CC(=O)NC3CCC3)CC[C@@H]21	7.2

Carrying on.
SMILES	UUG fidelity
O=C(C[C@@H]1CC[C@@H]2[C@H](COC[C@@H](O)CN2C(=O)c2cnccn2)O1)NCc1ccc(Cl)cc1	-17.1
CCCNC(=O)Nc1ccc2c(c1)OC[C@@H](C)N(Cc1ccc(-c3ccccn3)cc1)C[C@H](C)[C@@H](OC)CN(C)C2=O	-3.5
C[C@H]1CN([C@@H](C)CO)C(=O)CCCn2nncc2CO[C@@H]1CN(C)C(=O)Nc1ccc(-c2cccs2)cc1	4.8
O=C(c1cccc(F)c1)N1C[C@H]2[C@@H](c3ccccc31)[C@H](CO)N2C(=O)C1CCCCC1	-0.9
C[C@@H]1CN([C@H](C)CO)C(=O)Cc2cc(N(C)C)ccc2O[C@H]1CN(C)S(=O)(=O)c1ccc(Cl)cc1	2.5
CCS(=O)(=O)Nc1ccc2c(c1)C(=O)N(C)C[C@H](OC)[C@H](C)CN(C(=O)NC(C)C)[C@@H](C)CO2	11.6
C[C@H](CO)N1C[C@H](C)[C@@H](CN(C)Cc2ccc(C(=O)Nc3ccccc3N)cc2)Oc2c(NC(=O)Nc3ccc4c(c3)OCO4)cccc2C1=O	-4.8
COCC(=O)N(C[C@@H]1N[C@@H](CO)[C@@H]1c1ccc(-c2cccnc2)cc1)C(C)C	-9.9
COc1ccc(NC(=O)Nc2ccc3c(c2)C(=O)N([C@@H](C)CO)C[C@@H](C)[C@H](CN(C)C(=O)Nc2ccc(C(F)(F)F)cc2)O3)cc1	-9.1
C[C@@H](NC(=O)C[C@@H]1CC[C@@H]2[C@H](COC[C@@H](O)CN2C(=O)Nc2cccc(F)c2)O1)c1ccccc1	35.4
Cc1ccccc1S(=O)(=O)N1CCCCN2[C@H](CO)[C@@H](c3ccc(-c4cccnc4)cc3)[C@@H]2C1	-4.0
C[C@H]1CN([C@@H](C)CO)C(=O)CCCn2nncc2CO[C@H]1CN(C)C(=O)OCc1ccccc1	-5.6
O=C(Nc1ccccc1)N1CCCCN2[C@H](CO)[C@@H](c3ccc(C#Cc4ccccc4)cc3)[C@@H]2C1	-3.6
CN1C[C@H]2[C@@H](c3ccccc31)[C@@H](CO)N2C(=O)c1ccccn1	3.3
C[C@@H]1CN([C@@H](C)CO)C(=O)c2cccc(N(C)C)c2O[C@H]1CN(C)S(=O)(=O)c1ccc(Cl)cc1	15.0
Cc1ccc(S(=O)(=O)N(C)C[C@@H]2Oc3ccc(NC(=O)CCCN(C)C)cc3CC(=O)N([C@@H](C)CO)C[C@H]2C)cc1	15.7
CCN(C[C@H]1[C@H](c2ccccc2)[C@@H](CO)N1C(=O)C1CC1)C(=O)NC1CCCC1	-13.4
CO[C@H]1CN(C)C(=O)c2ccc(NC(=O)c3ccc4c(c3)OCO4)cc2OC[C@H](C)N(CC2CC2)C[C@H]1C	1.7
O=C(NCC1CC1)[C@@H]1N[C@@H]2c3ccc(-c4ccccc4F)c(=O)n3C[C@@H]2[C@H]1CO	-2.2
O=C(Nc1cc(F)ccc1F)N1C[C@@H]2[C@H](c3ccccc31)[C@@H](CO)N2Cc1ccncc1	-11.8
Cc1ccccc1-c1ccc([C@@H]2[C@H](CO)N3CCCCN(C(=O)NC4CCCC4)C[C@@H]23)cc1	11.2
O=C(C[C@H]1CC[C@H]2[C@@H](COC[C@H](O)CN2Cc2cccc(C(F)(F)F)c2)O1)NCc1ccc(F)cc1	-8.8
Cc1noc(C)c1NC(=O)N(C)C[C@@H]1Oc2c(NS(=O)(=O)c3cccs3)cccc2C(=O)N([C@H](C)CO)C[C@H]1C	0.2
CN1C[C@@H]2[C@H](c3ccccc31)[C@@H](CO)N2C(=O)C1CCCC1	-6.0
COc1ccccc1-c1ccc([C@@H]2[C@H](CO)N3CCCCN(C(=O)NC4CCCC4)C[C@@H]23)cc1	-1.8
Further compounds follow:
SMILES	UUG fidelity
O=C(Nc1cc(F)ccc1F)N1CCCCN2[C@@H](CO)[C@H](c3ccc(-c4cncnc4)cc3)[C@@H]2C1	-5.1
C[C@H](NC(=O)C[C@H]1C[C@@H]2c3cc(NC(=O)CC4CC4)ccc3O[C@@H]2[C@H](CO)O1)c1ccccc1	-2.9
C[C@@H]1CN([C@@H](C)CO)C(=O)c2cccc(NS(=O)(=O)c3ccccc3)c2O[C@H]1CN(C)C	2.2
CC(C)NC(=O)N(C)C[C@H]1Oc2ccc(NC(=O)Cc3cn(C)c4ccccc34)cc2C(=O)N([C@H](C)CO)C[C@@H]1C	11.7
Cc1ccc(S(=O)(=O)N2C[C@H](O)COC[C@@H]3O[C@H](CC(=O)N[C@H]4CCN(Cc5ccccc5)C4)CC[C@H]32)cc1	9.1
Cc1cc(C(=O)Nc2cccc3c2O[C@@H](CN(C)C(=O)Nc2ccccc2)[C@@H](C)CN([C@H](C)CO)C3=O)n(C)n1	-10.4
CC=Cc1ccc2n(c1=O)C[C@@H]1[C@@H](CO)[C@H](C(=O)N(C)C)[C@H]2N1CC1CCCCC1 (mixture of isomers)	9.9
C[C@H]1CN([C@@H](C)CO)C(=O)c2cc(NS(C)(=O)=O)ccc2O[C@@H]1CN(C)S(C)(=O)=O	-16.1
COc1ccc(NC(=O)N(C)C[C@H]2Oc3c(NS(=O)(=O)c4cccs4)cccc3C(=O)N([C@H](C)CO)C[C@H]2C)cc1	1.4
OC[C@H]1[C@@H](c2ccccc2)[C@H](CNCC2CCC2)N1CC1CC1	5.7
C[C@@H]1CN([C@@H](C)CO)C(=O)Cc2cc(N(C)C)ccc2O[C@@H]1CN(C)S(=O)(=O)c1ccc(Cl)cc1	5.3
O=C(C[C@@H]1CC[C@H]2[C@@H](COC[C@@H](O)CN2Cc2cccc(-c3ccncc3)c2)O1)N1CCCCC1	6.9
O=C(c1cccc(F)c1)N1C[C@@H]2[C@H](c3ccccc31)[C@H](CO)N2C(=O)C1CC1	-8.8
C[C@H](CO)N1C[C@H](C)[C@@H](CN(C)C(=O)Nc2ccc(F)cc2)Oc2c(NC(=O)c3ccncc3)cccc2C1=O	-4.7
O=C(CC1CC1)N1CC[C@H]2[C@H](CO)Nc3ccc(-c4cccc(F)c4)cc3[C@H]21	3.6
COCC(=O)N1CCCCN2[C@H](C1)[C@@H](c1ccc(C#Cc3cccnc3)cc1)[C@@H]2CO	-6.0
O=C(Nc1ccc(F)cc1)N1CCCCN2[C@H](CO)[C@H](c3ccc(C#Cc4ccccc4)cc3)[C@H]2C1	40.8
C[C@H](CO)N1C[C@H](C)[C@H](CN(C)C(=O)Nc2ccccc2)Oc2ccc(NS(C)(=O)=O)cc2C1=O	-19.2
Cc1ccc(S(=O)(=O)N(C)C[C@H]2OCc3ccccc3-c3ccccc3C(=O)N([C@H](C)CO)C[C@H]2C)cc1	27.0
O=C(C[C@@H]1CC[C@@H]2[C@H](COC[C@@H](O)CN2CC2CCOCC2)O1)N1CCOCC1	-12.7
Cc1ccc(S(=O)(=O)Nc2ccc3c(c2)C(=O)N([C@@H](C)CO)C[C@@H](C)[C@@H](CN(C)CC2CC2)O3)cc1	10.7
CC(C)CC#Cc1ccc([C@H]2[C@@H](CO)N3CCCCN(S(=O)(=O)Cc4ccccc4)C[C@H]23)cc1	15.4
O=C(CC1CC1)N1CC[C@@H]2[C@H](CO)Nc3ccc(-c4ccccc4)cc3[C@@H]21	-10.3
O=C(c1ccc(F)cc1)N1CCCCN2[C@H](C1)[C@@H](c1ccc(C#CC3(O)CCCC3)cc1)[C@@H]2CO	1.2
CS(=O)(=O)Nc1ccc2c(c1)[C@@H]1C[C@@H](CC(=O)N3CCCCC3)O[C@@H](CO)[C@@H]1O2	-4.2
(list continues)
SMILES	UUG fidelity
COc1ccc(CN2[C@@H](CO)[C@@H]3c4ccccc4N(C(=O)NC(C)C)C[C@@H]32)cc1	0.3
Cc1noc(C)c1S(=O)(=O)Nc1cccc2c1O[C@H](CN(C)S(C)(=O)=O)[C@H](C)CN([C@@H](C)CO)C2=O	-14.5
COc1ccc(NC(=O)N(C)C[C@@H]2Oc3c(NC(=O)Nc4cccc5ccccc45)cccc3C(=O)N([C@@H](C)CO)C[C@@H]2C)cc1	-1.4
O=C(Nc1ccccc1)N1C[C@H]2[C@@H](c3ccccc31)[C@@H](CO)N2Cc1cocn1	-5.9
COc1ccc(C#Cc2ccc3c(c2)[C@@H]2[C@@H](CCN2S(=O)(=O)c2cccc(OC)c2)[C@@H](CO)N3C)cc1	10.0
CCN(C[C@@H]1[C@@H](c2ccccc2)[C@@H](CO)N1CC1CC1)C(=O)c1ccccn1	2.6
COc1cccc(-c2ccc3c(c2)[C@H]2[C@H](CCN2C(=O)C2CCC2)[C@H](CO)N3)c1	-19.7
CO[C@@H]1CN(C)C(=O)c2ccc(NS(C)(=O)=O)cc2OC[C@@H](C)NC[C@H]1C	-10.4
O=C(c1ccccc1)N1CC[C@@H]2[C@@H](CO)Nc3ccc(-c4ccccc4F)cc3[C@@H]21	6.2
O=S(=O)(c1cccs1)N1CCCCN2[C@@H](CO)[C@H](c3ccc(C4=CCCC4)cc3)[C@@H]2C1	1.4
CC(C)NC(=O)Nc1ccc2c(c1)CC(=O)N([C@H](C)CO)C[C@@H](C)[C@@H](CN(C)Cc1ccc(Oc3ccccc3)cc1)O2	40.7
Cc1cccc(S(=O)(=O)N2CCCCN3[C@@H](CO)[C@H](c4ccc(-c5cccnc5)cc4)[C@@H]3C2)c1	-12.1

Not all compounds are listed. The share of hits here may be higher or lower than overall.
